Screening results (PubChem)
PABP polyA inh: PABP-poly(A) binding inhibition; P11940; PABP-poly(A) RNA binding, fluorescence polarization; inhibition, % at 35 µM; 290,000 tested, 1% active;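 active = 50% or more with normal probe brightness, or confirmed in later tests; inconclusive = above 50% with abnormal brightness, or retests that disagree; inactive = below 50% or failed in later tests; about a fifth of its hits are not listed in these tables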;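 note: calls also rest on retests at 20 µM and on dose response follow-up; controls were probe without protein and protein plus probe with vehicle; some compounds called inactive have numbers as strong as hits; many hits fall short of the cut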
eIF4H FP inh: inhibitors of RNA binding by human eIF4H | eIF4H fluorescence polarization binding assay | inhibition, % at 35 µM | 290,000 tested, 0.94% active;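 active = 50% or more with normal probe brightness, or confirmed in later tests; inconclusive = above 50% with abnormal brightness, or retests that disagree; inactive = below 50% or failed in later tests; about a fifth of its hits are not listed in these tables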;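 note: calls also rest on retests at 20 µM and on dose response follow-up; 0% = protein and probe with vehicle and 100% = probe without protein; strong numbers were not always called active; many hits fall short of the cut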
HIV Env fusion: inhibitors of HIV Env-mediated cell fusion; HeLa-JRFL Env/CEM21 cell fusion, luciferase; inhibition, % at 12.3 µM; 360,000 tested, 1.1% active; AID 651610;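 active = mean replicate inhibition score of at least 50 and every replicate individually at or above 50; inconclusive = only one of the two criteria met; inactive = mean below 50 and not all replicates reaching 50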;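 note: 0% = plate neutral controls and 100% = maraviroc near 300 nM; one replicate is shown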
MT1-MMP act inh: blocks activation of human MT1-MMP | 360,000 tested, 0.061% active | GFP/RFP ratio change, % at 20 µM | HT1080 RFP-PRO-GFP cells, GFP/RFP ratio fluorescence, overnight; percent of plate control window, DMSO zero | AID 651647;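 active = GFP/RFP ratio change of at least 30% with cell ATP level not reduced by more than half and red fluorescence within 50% of control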; note: strong numbers were not always called active
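Test system: HT1080 cells expressing an RFP-PRO-GFP fluorescent reporter construct / Compound dosing: single-point 20 µM compound, 1% DMSO / Schedule: cells overnight before dosing, compound overnight, 37 °C, 5% CO2 / Evaluation: GFP/RFP fluorescence ratio / Control set: DMSO and RFP-L50D-GFP cell wells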
Yeast UUG start: yeast start codon fidelity modulation | S. cerevisiae UUG-firefly luciferase reporter, luminescence/redox ratio | activity score, % at 18.7 µM | 350,000 tested, 0.13% active;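 active = replicate mean at a twofold rise or more, about +100% in these data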;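 note: firefly luciferase made from a UUG start codon reports start codon fidelity; reporter light over untreated wells divided by growth signal over untreated wells; some hits fall short of that in this replicate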
CSC inhib: cancer stem cell inhibition | cancer stem cell-like cells viability, luminescence | inhibition, % at 7.5 µM | 300,000 tested, 1.1% active | AID 2717;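 active = mean at 75% or more and at least half the replicates too; inconclusive = mean and replicates disagree; tested in HMLE shEcad cells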;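 note: 0% = median of negative and 100% = median of positive control wells; the first replicate is given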
Rce1 inhib: yeast Ras-converting enzyme inhibition | Q03530 | yeast membranes, quenched prenylated peptide cleavage fluorescence | calls only | 290,000 tested, 0.27% active | AID 2563;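 active = fall in fluorescence gain of 50% or more versus controls, with final raw signal at or below 3038400; inconclusive = same 50% fall but final raw signal above 3038400; inactive = fall in fluorescence gain under 50%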;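 note: plate controls were neutral control wells for no effect and wells lacking membranes for full effect; tested at 10 µM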
Target sequence (Q03530 whole entry, looked up): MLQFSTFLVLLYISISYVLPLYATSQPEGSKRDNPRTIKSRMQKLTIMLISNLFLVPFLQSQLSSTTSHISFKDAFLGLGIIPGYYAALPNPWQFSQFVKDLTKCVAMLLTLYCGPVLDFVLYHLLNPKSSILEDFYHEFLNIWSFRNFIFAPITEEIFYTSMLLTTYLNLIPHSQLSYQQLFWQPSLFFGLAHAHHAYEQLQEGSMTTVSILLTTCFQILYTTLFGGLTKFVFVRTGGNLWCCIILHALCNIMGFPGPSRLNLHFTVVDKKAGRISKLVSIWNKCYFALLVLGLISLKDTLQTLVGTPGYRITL
eIF4H FP inh retest: also measured in eIF4H FP inh; calls as there; inhibition, %; compound at 20 µM; confirmation average;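 mean of two retest wells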
PABP polyA inh retest: recorded beside PABP polyA inh, whose call it bears; inhibition, %; compound at 20 µM; confirmation repeats;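 mean of two retest wells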
MT1-MMP act inh RFP: also measured in MT1-MMP act inh; calls as there; RFP signal change, %; measured here: RFP expression control read;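 0 = vehicle wells; hits needed this value within 50% of zero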
Starred values were filed as active, the others as inactive; i = inactive; ? = inconclusive; nt = no result given; + = active, no number; & = joins results of further samples.

SMILES	PABP polyA inh	eIF4H FP inh	HIV Env fusion	MT1-MMP act inh	MT1-MMP act inh RFP	Yeast UUG start	CSC inhib	Rce1 inhib	others
COc1ccc(N(C)S(=O)(=O)c2cccc(C(=O)NCC3CCCCC3)c2)cc1	11	-2	11	-28	-28	nt	nt	i
CC(=O)N1CCC[C@H]1C(=O)O	-2	-5	24	-6	-4	nt	-11	i
COC(=O)c1ccc(CSc2nnc(-c3c[nH]c4ccccc34)n2-c2ccccc2)cc1	-7	-7	0	0	-15	nt	0	i
COc1ccc(NC(=O)CN(c2ccc(OC)c(Cl)c2)S(=O)(=O)c2ccccc2)c(OC)c1	19	-11	1	1	-6	-9	11	i
COc1ccc2nc3cc(Cl)ccc3c(Nc3cc(CN4CCCC4)c(O)c(CN4CCCC4)c3)c2n1	?	25	-423	-6	-9	-1	32	i
C=CCn1c(SCC(=O)NC(=O)c2cccc([N+](=O)[O-])c2)nnc1-c1ccccc1	7	0	-21	3	4	nt	-6	i
Cc1nnc(N2C(=O)C(O)=C(C(=O)c3ccco3)C2c2ccc(F)cc2)s1 (configuration not stated)	-18	?	-19	-17	6	35	-1	i
CC1CCCCC12NC(=O)N(CC(=O)N1CCN(C(=O)c3cccs3)CC1)C2=O (configuration not stated)	nt	nt	1	1	0	-6	nt	nt
CS(=O)(=O)c1ccc(Cl)c(NC(=O)COC(=O)c2ccc(S(=O)(=O)N3CCCC3)cc2)c1	nt	nt	-58	4	3	-17	-7	nt
CN1CCN(c2ccc(CNS(=O)(=O)c3cccc(F)c3)cc2)CC1	0	-1	-8	-1	-2	6	33	i
C[C@@H]1CN([C@H](C)CO)C(=O)CCCn2nncc2CO[C@H]1CN(C)S(=O)(=O)c1ccccc1F	nt	nt	-207	-4	2	3&-1	nt	nt
COc1ccc([N+](=O)[O-])cc1N(CC1CO1)S(=O)(=O)c1ccc(C)cc1 (configuration not stated)	0	-8	2	-2	1	nt	-8	i
CCCOc1ccc(CSc2ncn[nH]2)cc1	-2	-7	nt	-8	-1	-22	-8	i
CCC1CCCCN1S(=O)(=O)c1c(C)n(C)c(=O)n(C)c1=O (configuration not stated)	nt	nt	4	0	4	-8	-15	i
CC1(C)CCCN(C(=O)c2ccc3c(c2NCCO)C(=O)c2ccccc2C3=O)C1	11	3	7	40*	8.7*	nt	9	i
COc1cccc(C(=O)NNS(=O)(=O)c2ccc(F)cc2)c1	6	1	2	-3	2	-4	-13	i
CCOc1cc2[nH]c(=S)n(Cc3ccc(C)o3)c(=O)c2cc1OCC	5	-2	nt	4	-12	-22	-17	i
CNC(=O)NC(=O)CSc1ncc(C(F)(F)F)cc1Cl	-10	-1	-37	0	1	-17	-10	i
O=C(C[n+]1ccc(CCSc2ccc(F)cc2)cc1)c1ccccc1	4	46	nt	-2	9	-17	-6	i
CCn1nnnc1SCC(=O)NCc1ccco1	2	-7	-38	-4	-8	-4	5	nt
COc1ccc(OCCCC(=O)OCC(=O)NNC(=O)c2ccc([N+](=O)[O-])cc2)cc1	nt	nt	-36	1	1	0	9	i
CCCCC(c1nnnn1CC1CCCO1)N1CCN(c2cc(Cl)ccc2C)CC1 (configuration not stated)	2	-13	nt	-44	-33	nt	nt	i
Cc1cccc(Oc2ccccc2NC(=O)CN2C(=O)NC3(CCCC3)C2=O)c1	nt	nt	7	-2	-1	13	-9	i
Clc1ccc(N=c2ssnc2Cl)nc1	37	17	-68	0	5	nt	27	i
CCN(CC)S(=O)(=O)c1ccc(/C=C/C(=O)OCC(=O)Nc2cccnc2Cl)cc1	nt	nt	nt	-3	1	6	5	nt
CCOc1ccc(NC(=O)COC(=O)CNC(=O)c2ccc(-c3ccccc3)cc2)cc1	nt	nt	nt	4	-2	-15	-1	nt
COc1cc(C(=O)Nc2nc(-c3ccc(F)cc3)cs2)ccc1OCC(=O)N1CCOCC1	-18	-17	11	0	-9	nt	-6	i
O=C(c1ccsc1)N1CCCC(Nc2ccc(F)c(F)c2)C1 (configuration not stated)	8	-1	3	1	3	-10	10	i
CCn1c(=O)c2cc(S(=O)(=O)NCc3ccccc3)ccc2n(CC)c1=O	8	4	2	6	-4	-3	nt	nt
S=c1[nH]c(-c2ccccc2)cn1/N=C/c1ccc(Br)cc1	-3	0	-14	4	-3	nt	-4	nt
Cc1ccc(N2C(=O)[C@@H]3[C@H](C2=O)[C@H]2C=C(C(=O)c4ccccc4)C=CN2[C@@H]3C(=O)c2ccc(Cl)cc2)cc1	8	6	-42	-11	6	nt	-15	nt
COc1ccc2[nH]cc(CCNC(=O)C3CCCNC3=O)c2c1 (configuration not stated)	1	-3	17	4	4	-1	-3	i
Cc1cc(C(=O)CCl)c(C)n1Cc1ccco1	0	97	-8	-9	0	nt	-1	i	eIF4H FP inh retest=-8;PABP polyA inh retest=5
COc1cccc(CN2C(=O)[C@@H]3Cc4c([nH]c5ccccc45)C(C)(C)N3C2=O)c1	nt	nt	-7	3	-8	-11	1	i
CCOC(=O)c1cccc(NC(=O)CCNS(=O)(=O)c2ccc3c(c2)CCN3C(=O)CC)c1	3	6	-43	3	2	11	-3	i
Cc1ccc2c(c1)sc[n+]2Cc1ccccc1	-3	-1	nt	-3	3	-7	-3	+
O=C(NCc1ccco1)Nc1ccc(OC(F)(F)F)cc1	-3	-10	5	8	1	-18	0	i
O=C(Nc1nc(-c2cccc3ccccc23)cs1)c1cnccn1	-3	2	13	-1	-6	4	24	i
CCn1c(SCC(=O)N2CCN(c3ccccc3)CC2)nc2c(c1=O)SC(C)C2 (configuration not stated)	48	0	-2	-5	-1	0	-3	i
O=S(=O)(NCc1ccc(F)cc1)c1ccc2c(c1)OCCO2	0	3	10	-4	-2	0	nt	i
C=CCSc1nc2ccccc2c(=O)n1C1CCOC(C)(C)C1 (configuration not stated)	-2	-3	14	0	-2	nt	-7	i
CCOC(=O)c1c(-c2ccc(F)cc2)csc1NC(=O)C1CCCO1 (configuration not stated)	-6	-7	-9	1	-5	nt	50	i
CO[C@H]1CN(C)C(=O)c2ccc(NC(=O)C3CCC3)cc2OC[C@H](C)N(Cc2ccc(F)cc2)C[C@@H]1C	nt	nt	16	-2	0	8	nt	nt
CC(=O)N1CCN(C(=O)CCN(c2ccccc2)S(=O)(=O)c2ccc(C)cc2)CC1	nt	nt	0	-2	2	-1	-11	i
O=C(CSc1nnc(C2CC2)n1-c1ccccc1)NCc1ccco1	-1	-1	nt	1	4	nt	-10	i
C=CCc1cccc(/C=N/NC(=O)CNc2cccc3ccccc23)c1O	-15	40	19	-3	-5	nt	64	i
CC(=O)Nc1nc2ccccc2n1Cc1ccccc1Cl	-2	-6	11	20	8	nt	33	i
Cc1ccc(-c2nn(-c3ccccc3Cl)cc2C(=O)NCC2CCCO2)cc1 (configuration not stated)	nt	nt	9	3	1	nt	-5	i
CS(=O)(=O)N1CCC(C(=O)c2cccc(Cl)c2)CC1	6	-4	nt	1	3	-21	-3	i
CC(C)(C)NC(=O)Cn1c(SCC(=O)NC2CC2)nc2ccccc21	0	-6	-5	-5	-1	-4	6	i
Cc1ccc(S(=O)(=O)N2CCN(C(=O)CSc3nc(N)cc(=O)[nH]3)CC2)c(C)c1	0	7	1	-3	-4	8	6	i
COc1ccc(Nc2nc(C(F)(F)F)nc(C)c2C#N)cc1	-3	0	-5	5	0	-20	0	i
COc1cc2c(cc1OC)C1=C(C#N)CCC(=O)N1CC2	-14	-3	nt	6	4	6	-34	i
CCn1cc(/C=C2\SC(=O)N(CC(=O)Nc3ccc4c(c3)OCO4)C2=O)c2ccccc21	0	7	nt	1	6	nt	4	nt
Cc1ccc(S(=O)(=O)N(C)CCCC(=O)Nc2cc(C)ccc2C)cc1	-7	-5	10	-4	-12	-19	-8	i
OCC1(CCc2ccccc2)CCN(Cc2cccn2-c2cccnc2)CC1	-6	-2	5	3	7	nt	-2	i
Cc1ccc(SCCN2CCN(CC(C)C)CCC2=O)cc1	2	-3	-9	-2	2	0	nt	i
COC(=O)c1cc(NC(=S)NCc2ccc(Cl)cc2)cc(C(=O)OC)c1	9	-7	-8	-7	-2	nt	71	i
CN(C)c1cccc(C(=O)OCC(=O)N(C)c2ccccc2)c1	7	-12	8	1	5	6	-12	i
Cc1cccc(C)c1NC(=O)CNC(=O)CCC(=O)N1CCOCC1	nt	nt	16	-4	-1	0	-9	i
Continuation.
SMILES	PABP polyA inh	eIF4H FP inh	HIV Env fusion	MT1-MMP act inh	MT1-MMP act inh RFP	Yeast UUG start	CSC inhib	Rce1 inhib	others
O=C(CN(Cc1ccc(F)cc1)C(=O)CNS(=O)(=O)c1ccc(F)cc1)NCc1ccco1	-8	6	0	-1	-2	-17	-1	i
COc1ccc(CCNC(=O)c2cc3c(=O)n4ccccc4nc3n(CCN3CCOCC3)c2=N)cc1	3	4	4	3	-14	9	-7	i
CCCn1nnnc1SCC(=O)N(C(C)C)C(C)C	-3	-6	-29	-2	-4	-4	-1	i
C[n+]1ccccc1C1CCCC/C1=N\Nc1ccc([N+](=O)[O-])cc1[N+](=O)[O-] (configuration not stated)	-1	-5	-2	2	5	nt	-8	i
O=C1c2ccccc2C(=O)N1Cc1nc2ccccc2c(=O)n1CCCn1ccnc1	3	8	nt	1	3	nt	nt	i
CNC(=S)N1CCC(NC(=O)C(Cc2ccc(OC)cc2)NC(C)=O)CC1 (configuration not stated)	3	0	8	1	5	-14	-9	i

Some of these compounds in order of SMILES length, ascending:
SMILES	PABP polyA inh	eIF4H FP inh	HIV Env fusion	MT1-MMP act inh	MT1-MMP act inh RFP	Yeast UUG start	CSC inhib	Rce1 inhib	others
CCCn1nnnc1SCC(=O)N(C(C)C)C(C)C	-3	-6	-29	-2	-4	-4	-1	i
Cc1ccc(SCCN2CCN(CC(C)C)CCC2=O)cc1	2	-3	-9	-2	2	0	nt	i
COc1cc2c(cc1OC)C1=C(C#N)CCC(=O)N1CC2	-14	-3	nt	6	4	6	-34	i
CN(C)c1cccc(C(=O)OCC(=O)N(C)c2ccccc2)c1	7	-12	8	1	5	6	-12	i
Cc1cccc(C)c1NC(=O)CNC(=O)CCC(=O)N1CCOCC1	nt	nt	16	-4	-1	0	-9	i
OCC1(CCc2ccccc2)CCN(Cc2cccn2-c2cccnc2)CC1	-6	-2	5	3	7	nt	-2	i
Cc1ccc(S(=O)(=O)N(C)CCCC(=O)Nc2cc(C)ccc2C)cc1	-7	-5	10	-4	-12	-19	-8	i
CNC(=S)N1CCC(NC(=O)C(Cc2ccc(OC)cc2)NC(C)=O)CC1 (configuration not stated)	3	0	8	1	5	-14	-9	i
O=C(CN(Cc1ccc(F)cc1)C(=O)CNS(=O)(=O)c1ccc(F)cc1)NCc1ccco1	-8	6	0	-1	-2	-17	-1	i
CCn1cc(/C=C2\SC(=O)N(CC(=O)Nc3ccc4c(c3)OCO4)C2=O)c2ccccc21	0	7	nt	1	6	nt	4	nt
C[n+]1ccccc1C1CCCC/C1=N\Nc1ccc([N+](=O)[O-])cc1[N+](=O)[O-] (configuration not stated)	-1	-5	-2	2	5	nt	-8	i

Hits appear at their usual frequency; about 3% have a hit in one of these screens.
